Mtb MenB inh – M. tuberculosis MenB inhibitors, primary screen, biochemical, absorbance. MenB enzyme assay, absorbance read-out; some hits fall short of the stated cut. inhibition, %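 (about 12 µg/mL by stock and volumes)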. 100,000 compounds, 0.43% hits. 1,4-dihydroxy-2-naphthoyl-CoA synthase (Mycobacterium tuberculosis (strain ATCC 25618 / …;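 active = mean of two replicates above 30%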;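 also: 0% = no compound and 100% = wells with inactive enzyme; the first replicate is given; strong numbers were not always called active; inactives centre near -10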
Target sequence (P9WNP5 whole entry, looked up): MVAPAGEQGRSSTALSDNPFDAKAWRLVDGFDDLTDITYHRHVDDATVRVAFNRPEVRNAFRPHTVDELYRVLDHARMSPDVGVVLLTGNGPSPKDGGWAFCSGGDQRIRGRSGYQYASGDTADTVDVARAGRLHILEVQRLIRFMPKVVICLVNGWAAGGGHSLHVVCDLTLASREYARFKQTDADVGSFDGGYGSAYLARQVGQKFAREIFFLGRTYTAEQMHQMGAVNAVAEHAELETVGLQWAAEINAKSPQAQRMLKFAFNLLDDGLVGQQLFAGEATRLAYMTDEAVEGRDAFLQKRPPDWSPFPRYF
Polio RdRp inh – poliovirus RdRp elongation inhibitors, primary screen, biochemical, fluorescence polarization, total intensity; Genome polyprotein (Poliovirus type 1 (strain Mahoney)), P03300; poliovirus polymerase elongation; hits give low values; % elongation, % (compound at 16.7 µg/mL); 150,000 compounds, 0.66% hits; AID 588519, 2011; in the data active = % elongation below about 90%; also: some results filed as inactive read as strong as hits
Target sequence (P03300 1749-2209 limits assumed): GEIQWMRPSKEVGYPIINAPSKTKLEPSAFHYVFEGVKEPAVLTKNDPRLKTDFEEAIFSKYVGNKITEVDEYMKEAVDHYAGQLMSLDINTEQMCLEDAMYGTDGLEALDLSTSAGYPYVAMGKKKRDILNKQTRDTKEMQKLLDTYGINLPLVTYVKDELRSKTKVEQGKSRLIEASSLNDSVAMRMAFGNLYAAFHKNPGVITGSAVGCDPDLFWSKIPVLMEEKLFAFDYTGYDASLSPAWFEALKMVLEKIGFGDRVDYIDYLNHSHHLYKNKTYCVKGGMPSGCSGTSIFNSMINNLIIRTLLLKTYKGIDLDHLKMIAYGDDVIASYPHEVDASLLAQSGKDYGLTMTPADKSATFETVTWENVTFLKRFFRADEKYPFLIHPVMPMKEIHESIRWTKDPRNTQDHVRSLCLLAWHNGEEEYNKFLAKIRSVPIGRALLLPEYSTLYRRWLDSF
Mtb MbtI inh – MbtI salicylate synthase inhibitors, primary screen, biochemical, fluorescence intensity; purified MbtI enzyme, fluorescence intensity read-out; P9WFX0; 100,000 compounds, 0.89% hits; inhibition, %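 (about 17 µg/mL by stock and volumes)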;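 active = above 50% in both replicates, above 80% if mildly self-fluorescent; inactive = the rest, strongly fluorescent compounds included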;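 also: 0% = mean of negative and 100% = mean of positive controls; one replicate is shown; some compounds called inactive have numbers as strong as hits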
Polio RdRp inh intensity – second read-out of Polio RdRp inh, no call of its own (marks repeat the call); % elongation; measured here: total intensity read-out; formula for this scale not given here;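 total fluorescence in place of polarization; lower means less elongation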
Starred values were filed as active, the others as inactive; . = not tested or not shown. No enrichment for hits; overall some 1.8% were active at least once.

compound | Mtb MenB inh | Polio RdRp inh | Polio RdRp inh intensity | Mtb MbtI inh
O=C(C1=NN(c2ccccc2)C(=O)CC1)N1CCN(c2ncccn2)CC1 | 4 | 92 | 115 | -47
CCOC(=O)Nc1nc2ccc(OC)cc2s1 | 3 | 102 | 108 | -11
Cc1cc2c(n1-c1ccc(C(=O)NCCc3cccs3)cc1)CCCC2 | -9 | 105 | 110 | -8
CCOc1ccc(NC(=O)NC(=O)N(C(C)C)S(C)(=O)=O)cc1 | -18 | 99 | 106 | 10
FC(F)(F)c1cnc(SCc2nc3ccccc3o2)c(Cl)c1 | 1 | 103 | 100 | -3
CC(=O)OC[C@H]1O[C@@H](Oc2ccccc2)[C@H](OC(C)=O)[C@@H](OC(C)=O)[C@H]1OC(C)=O | 4 | 100 | 98 | -5
O=c1cc(-c2ccccc2)n(-c2ccccc2)cn1 | -21 | 97 | 86 | .
O=C(COc1ccccc1)Nc1ccn(Cc2ccccc2)n1 | -25 | 102 | 103 | -21
CN(Cc1ccccc1)C(=O)Cn1c(=O)oc2cc(S(=O)(=O)N3CCCCC3)ccc21 | 5 | 101 | 106 | -1
C=CCc1cc(C(=O)O)cc(OC)c1OC | -12 | 96 | 99 | -4
Cc1ccc(C2SCC(C(=O)O)N2C(=O)c2cccc(Cl)c2)cc1 (stereo not drawn) | -8 | 104 | 107 | .
Oc1c(C(c2cccnc2)N2CCCCC2)ccc2cccnc12 (stereo not drawn) | -21 | 111 | 118 | -5
COCc1nnc(NC(=O)/C=C/c2ccc3c(c2)OCO3)s1 | -6 | 97 | 95 | -147
Cc1nccc2[nH]c(=O)c(C(=O)NCc3ccc(F)cc3)cc12 | 1 | 100 | 104 | 76
O=C(NCCSc1ccccc1)c1cc2ccccc2o1 | 0 | 102 | 104 | -15
COC(=O)CSc1cc(C)nc(N)n1 | -5 | 99 | 99 | .
COC(=O)/C=C1\NC(=O)C(C)S1 (stereo not drawn) | 1 | 106 | 106 | 25
c1ccc(-n2nnnc2N2CCCC2c2nc3ccccc3s2)cc1 (stereo not drawn) | -17 | 112 | 107 | -7
COc1ccc(CCNC(=O)C2CCN(S(C)(=O)=O)CC2)cc1OC | -25 | 101 | 103 | -12
Cc1cc(C(F)(F)F)nc(SCC(=O)NCc2ccccc2)n1 | -4 | 104 | 103 | -2
C/C(CCc1ccc2c(c1)OCO2)=N\Nc1nc(C)cc(C)n1 | -77 | 106 | 114 | -2
CNS(=O)(=O)c1cccc(C(=O)OCc2nnc(-c3cc(OC)c(OC)c(OC)c3)o2)c1 | -18 | 112 | 116 | -274
COc1ccc(CCC(=O)NCCc2cn3c(C)csc3n2)cc1 | -29 | 104 | 108 | -4
COC(=O)c1ccc(OCCN2C3=NCCN3c3ccccc32)cc1 | 8 | 101 | 103 | -20
O=C(NC(=S)SCc1ccc(Cl)cc1)c1ccccc1 | . | 103 | 109 | -2
COC(=O)c1ccc(COC(=O)c2ccc3ncsc3c2)o1 | -26 | 103 | 98 | -29
N#Cc1ccc(C(=O)OCC(=O)c2cc3ccccc3o2)cc1 | -19 | 112 | 124 | 11
O=C(CCNS(=O)(=O)c1ccc2[nH]c(=O)ccc2c1)Nc1ccc(CN2CCCCC2)cc1 | -4 | 102 | 102 | 24
O=C1Nc2ccccc2C1=NCCCN=C1C(=O)Nc2ccccc21 | -6 | 102 | 101 | -20
Cc1csc2c(=O)sc(NC(=O)c3cccs3)nc12 | -21 | 103 | 107 | 20
Cc1cccc(-c2cc3nc(-c4ccccc4)cc(=O)n3[nH]2)c1 | 22 | 105 | 104 | -149
NCC1COc2ccccc2O1 (stereo not drawn) | -58 | 100 | 104 | 1
COC(C(=O)NCc1ccc(C)cc1)c1ccccc1 (stereo not drawn) | -3 | 107 | 112 | .
N#CC(CCN1CCNCC1)(c1ccccc1)c1ccccc1 | 0 | 99 | 101 | .
COc1ccc(N2CC(NC(=O)N(CC(C)C)CC(C)C)CC2=O)cc1 (stereo not drawn) | 15 | 97 | 99 | 4
O=C(CCc1ccc(-c2ccccc2)o1)N1CCN(S(=O)(=O)Cc2ccccc2)CC1 | 2 | 104 | 104 | 53
Cc1nn(CCC#N)cc1C=C(C#N)C#N | -2 | 101 | 106 | 3
CCN(c1ccccc1)S(=O)(=O)c1ccc(-n2cccn2)cc1 | -6 | 103 | 103 | -17
CC1CCCCC1NC(=O)c1cccc(N2C(=O)C3C4C=CC(C4)C3C2=O)c1 (stereo not drawn) | -6 | 101 | 105 | -3
Cc1ccc(C)c(OC(=O)/C=C/c2ccco2)c1C | -12 | 101 | 104 | 19
O=C(O)CN1CCC(c2ccccc2)CC1 | -6 | 103 | 112 | .
Cc1ccc(S(=O)(=O)NCC2COC3(CCCCC3)O2)cc1 (stereo not drawn) | -4 | 98 | 102 | 0
CC1CCCC(C)N1C(=O)COc1ccc(C(=O)O)cc1 (stereo not drawn) | . | 101 | 103 | 0
Cc1cc(S(=O)(=O)N(C)CCc2ccccc2)ccc1-n1cnnn1 | -35 | 103 | 102 | -3
Cn1c(C2CC(=O)N(c3cccc4ccccc34)C2)nc2ccccc21 (stereo not drawn) | -34 | 104 | 97 | -9
CC(Sc1nnc(Cc2cccc3ccccc23)n1C1CCCCC1)C(=O)NCc1ccco1 (stereo not drawn) | -18 | 104 | 109 | -19
Oc1c(O)c(CN2CCCCC2)c2ccccc2c1CN1CCCCC1 | 1 | 111 | 119 | -19
O=C(O)CCSCc1ccccc1F | 2 | 102 | 103 | -1

Random excerpt: 5 entries already listed.
compound | Mtb MenB inh | Polio RdRp inh | Polio RdRp inh intensity | Mtb MbtI inh
Cc1cc(C(F)(F)F)nc(SCC(=O)NCc2ccccc2)n1 | -4 | 104 | 103 | -2
COc1ccc(CCNC(=O)C2CCN(S(C)(=O)=O)CC2)cc1OC | -25 | 101 | 103 | -12
Cc1cc2c(n1-c1ccc(C(=O)NCCc3cccs3)cc1)CCCC2 | -9 | 105 | 110 | -8
O=C(COc1ccccc1)Nc1ccn(Cc2ccccc2)n1 | -25 | 102 | 103 | -21
CNS(=O)(=O)c1cccc(C(=O)OCc2nnc(-c3cc(OC)c(OC)c(OC)c3)o2)c1 | -18 | 112 | 116 | -274

Additional compounds follow.
compound | Mtb MenB inh | Polio RdRp inh | Polio RdRp inh intensity | Mtb MbtI inh
Cn1c(=O)n(Cc2ccccc2F)c(=O)c2c1nc1n2CCCN1Cc1ccco1 | 5 | 98 | 102 | 7
COC(=O)c1ccc(OCC(=O)c2cccc(OC)c2)cc1 | -18 | 104 | 103 | -4
CC1CN(C(=O)COC(=O)C2CCC(C(C)(C)C)CC2)CC(C)O1 (stereo not drawn) | -14 | 106 | 106 | 0
COc1ccc2c(c1)CC/C(=C/c1cccs1)C2=O | -57 | 99 | 99 | 7
COc1ccc(-n2ncnc2-c2ccc(Cl)cc2Cl)cc1 | -17 | 100 | 100 | -1
CCc1cccc(C)c1NC(=O)c1ccc(C(=O)Nc2c(C)cccc2CC)cc1 | -14 | 103 | 106 | -17
CCOc1ccccc1N1CCN(C(=O)C2CCN(Cc3ccc(OC)cc3)CC2)CC1 | -7 | 101 | 97 | -2
O=C(CCn1nc(-c2ccccc2)ccc1=O)NCCc1ccccc1 | 4 | 102 | 99 | 27
CC(=O)Oc1ccccc1C(=O)NC(C)(C)C | 3 | 109 | 114 | .
O=C(NC1CCCCC1)c1ccc2c(c1)ncn2C1CCCCCC1 | -13 | 101 | 107 | -12
COc1ccc(-c2nn(-c3ccccc3)cc2NC(=O)Nc2cccc(C#N)c2)cc1OC | -35 | 103 | 108 | -8
CN(C)C(=O)/C(=C/C=C/c1ccccc1)NC(=O)c1ccccc1 | . | 104 | 104 | 16
O=C(Nc1cnc2ccccn2c1=O)c1ccc(F)cc1 | -8 | 103 | 102 | -6
NNC(=O)C1CCN(c2ncc(C(F)(F)F)cc2Cl)CC1 | -11 | 104 | 101 | -10
O=C(COC(=O)c1cc(Br)ccc1O)NC1CCCCC1 | . | 101 | 103 | -26
COc1ccc(-c2n[nH]c3c2C(c2ccc(OC)cc2)N(c2ccccc2)C3=O)cc1 (stereo not drawn) | -21 | 104 | 103 | 0

Molecules shown so far that have an aryl thioether with sulfur outside any ring:
compound | Mtb MenB inh | Polio RdRp inh | Polio RdRp inh intensity | Mtb MbtI inh
FC(F)(F)c1cnc(SCc2nc3ccccc3o2)c(Cl)c1 | 1 | 103 | 100 | -3
O=C(NCCSc1ccccc1)c1cc2ccccc2o1 | 0 | 102 | 104 | -15
COC(=O)CSc1cc(C)nc(N)n1 | -5 | 99 | 99 | .
Cc1cc(C(F)(F)F)nc(SCC(=O)NCc2ccccc2)n1 | -4 | 104 | 103 | -2
CC(Sc1nnc(Cc2cccc3ccccc23)n1C1CCCCC1)C(=O)NCc1ccco1 (stereo not drawn) | -18 | 104 | 109 | -19

Later entries
compound | Mtb MenB inh | Polio RdRp inh | Polio RdRp inh intensity | Mtb MbtI inh
O=C(CCn1c(=O)c2ccccc2n(Cc2cc(=O)n3ccccc3n2)c1=O)NCc1ccc2c(c1)OCO2 | 1 | 102 | 103 | 6
COCCn1c(C)cc(C(=O)c2sc(-c3c(N)n(C)c(=O)n(C)c3=O)nc2-c2ccccc2)c1C | 6 | 103 | 104 | -9
CN(C(=O)Cn1c(SCc2ccccc2F)nc2ccncc21)c1ccccc1 | 4 | 103 | 101 | -7
COc1cccc(C(=O)NCc2ccc3c4c(cccc24)C(=O)N3)c1 | -35 | 99 | 100 | 6
CCOC(=O)C1CCN(C(=O)Cn2ncc3c(C)n(Cc4ccc(Cl)cc4)c(C)c3c2=O)CC1 | 1 | 102 | 106 | -8
NC(=O)c1cc(N)ccc1N1CCOCC1 | 0 | 102 | 102 | -6
Cn1c(SC2CCOC2=O)nnc1-c1ccccc1F (stereo not drawn) | 3 | 92 | 90 | 4
COc1ccc(C=Nc2ccc(C)cc2)cc1 | 8 | 100 | 105 | 10
CC(=O)N1CCn2c1nc(N(C)C)nc2=O | 16 | 99 | 102 | 0
O=C(O)c1[nH]c2ccccc2c1CC(=O)N1CCN(c2ccccc2F)CC1 | -17 | 103 | 99 | 2
CCN(CC)S(=O)(=O)c1cccc(C(=O)NCc2ccccc2)c1 | -31 | 104 | 100 | -6
CC(=O)N(CCP(=O)(c1ccccc1)c1ccccc1)Cc1ccco1 | -9 | 101 | 104 | -8
CN(C)c1ccc(-c2nc3cnccn3c2Nc2ccccc2)cc1 | -23 | 99 | 103 | 26
COc1ccccc1NC(=O)CN(C)S(=O)(=O)c1ccc2c(c1)n(C)c(=O)c(=O)n2C | 5 | 99 | 102 | -3
Cc1ccc2oc(=O)c3cnn(CC(=O)NCCc4ccc(S(N)(=O)=O)cc4)c3c2c1 | -12 | 100 | 104 | -2
CCOC(=O)c1ccc(NC(=O)Nc2ccc3c4c(cccc24)C(=O)N3CC)cc1 | -21 | 109 | 126 | 4

4 compounds from above, ordered by molecular weight, ascending.
compound | Mtb MenB inh | Polio RdRp inh | Polio RdRp inh intensity | Mtb MbtI inh
CN(C)c1ccc(-c2nc3cnccn3c2Nc2ccccc2)cc1 | -23 | 99 | 103 | 26
CCN(CC)S(=O)(=O)c1cccc(C(=O)NCc2ccccc2)c1 | -31 | 104 | 100 | -6
CCOC(=O)c1ccc(NC(=O)Nc2ccc3c4c(cccc24)C(=O)N3CC)cc1 | -21 | 109 | 126 | 4
Cc1ccc2oc(=O)c3cnn(CC(=O)NCCc4ccc(S(N)(=O)=O)cc4)c3c2c1 | -12 | 100 | 104 | -2

Compound activity as filed in PubChem BioAssay.
